VDR inh = Inhibitors of the vitamin D receptor (VDR): qHTS | Potency, µM, without a hit: max response, negative = inhibition, most hits filed as inhibitors | hit rate 0.93% among 400,000 | VDR-SRC2-3 peptide fluorescence polarization, 2 h | Vitamin D3 receptor (Homo sapiens), P11473 | AID 504847, 2011; active means well fitted inhibition curve with a large enough effect; inconclusive means small, poorly fitted or top-dose-only effect, or another doubt; inactive means no such curve, though single readings can be large or run the other way; further: series mostly up to about 120 µM
Target sequence (P11473 whole entry, looked up): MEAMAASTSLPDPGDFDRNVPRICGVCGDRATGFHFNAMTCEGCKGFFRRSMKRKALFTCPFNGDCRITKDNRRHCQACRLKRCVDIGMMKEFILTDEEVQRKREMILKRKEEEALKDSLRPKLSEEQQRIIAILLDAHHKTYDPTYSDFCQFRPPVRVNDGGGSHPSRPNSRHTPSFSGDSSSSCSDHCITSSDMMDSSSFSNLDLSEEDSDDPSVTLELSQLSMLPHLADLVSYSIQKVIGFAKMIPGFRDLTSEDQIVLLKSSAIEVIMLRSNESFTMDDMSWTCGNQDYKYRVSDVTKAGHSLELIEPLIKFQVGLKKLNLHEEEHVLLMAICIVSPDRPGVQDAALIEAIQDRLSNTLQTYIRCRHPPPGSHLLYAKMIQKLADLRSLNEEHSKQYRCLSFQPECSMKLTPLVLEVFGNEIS
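Signal is fluorescence polarization, reporting how far test compounds block the interaction of VDR with the SRC2-3 coregulator peptide after a 2 h room-temperature incubation.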
The depositor's hits bear a star; ? = inconclusive; & = joins results of further samples. On the % scale 0 is the no-effect control and ±100 the full control effect; potency means the concentration at half of the fitted maximal effect.

The opening two entries, ahead of the listing:
SMILES | VDR inh
Cc1ccc(-n2ncc3c(NC4CCCCC4)ncnc32)cc1Cl | 6.8%
Cc1ccc(NC(=O)C2CCN(S(=O)(=O)c3c(C)noc3/C=C/c3ccco3)CC2)nc1 | -2.5%

Main list, previewed entries included:
SMILES | VDR inh
Cc1ccc(-n2ncc3c(NC4CCCCC4)ncnc32)cc1Cl | 6.8%
Cc1ccc(NC(=O)C2CCN(S(=O)(=O)c3c(C)noc3/C=C/c3ccco3)CC2)nc1 | -2.5%
COc1cccc(N2C(=O)CSC23C(=O)N(Cc2ccccc2)c2ccccc23)c1 (configuration not stated) | 14.6%
O=C(CSc1n[nH]c(-c2cccnc2)n1)Nc1ccc(Br)cc1 | -8.1%
CN(C)c1ccc(CNC(=O)c2ccc(Cn3c(SCc4ccccc4)nc4cccnc43)cc2)cc1 | -2.5%
Cc1cc(C)nc(/N=C(\NC(=O)C(C)(C)C)Nc2ccccc2)n1 | -0.1%
CCn1c(SCC(=O)NNC(=O)c2ccccc2)nnc1-c1ccncc1 | 19.0%
CC(C)Oc1cccc(C2NC(=O)c3ccccc3O2)c1 (configuration not stated) | -13.5%
CCc1ccc(CN(C(=O)c2ccc(OC)cc2)C2CCS(=O)(=O)C2)cc1 (configuration not stated) | 0.5%
Cc1cc(OCC(=O)N2CCC(C(N)=O)CC2)c2c(C)cc(=O)oc2c1 | -1.4%
Fc1cccc(CSc2ccc(-c3cccs3)nn2)c1 | -2.1%
O=C(c1cccc(C(F)(F)F)c1)c1c[nH]c(C(=O)NCCCN2CCOCC2)c1 | -9.6%
COCCCN1CN=C(NS(=O)(=O)c2ccc(C)cc2)NC1 | -11.2%
Cc1nc2nc(SCC(=O)NCc3ccco3)nn2c(C)c1Cc1c(F)cccc1Cl | -4.0%
Cc1cc(=O)[nH]c(SCC(=O)N2CCCCC2)n1 | -12.7%
Cc1c(C#N)c(N)c(C(=O)c2ccccc2)n1Cc1ccccc1 | 22.6%
COc1ccc(CNC(=O)CSc2ncc3c(n2)-c2cc(Cl)ccc2N(Cc2ccccc2)S3(=O)=O)cc1OC | -2.6%
COc1cc(/C=C(\C#N)c2nc3ccc(C)cc3[nH]2)ccc1OC(C)C | 2.1%
COc1cccc(NC(=O)c2cc([N+](=O)[O-])ccc2NC(=O)CNCC2CCCO2)c1 (configuration not stated) | 5.2%
Cc1cc(C)c(NC(=O)c2oc3c(c2C)-c2[nH]ncc2CC3)c(C)c1 | 12.6%
CC(C)(C)c1ccc(C(=O)c2c[nH]c(C(=O)NCC3CCCO3)c2)cc1 (configuration not stated) | 8.8%
Cn1nc(C(=O)OCC(=O)N2CCc3ccccc32)c2ccccc2c1=O | 12.8%
CSc1nnnn1-c1c(C)cc(C)cc1C | 12.2%
CCn1cc(C(=O)NCc2ccc(Cl)cc2)c(=O)c2cc(S(=O)(=O)N(C)C)ccc21 | -6.7%
CN(C)S(=O)(=O)c1cccc(COC(=O)CN2CCCCCC2=O)c1 | 2.6%
CCN(CC)C(=O)c1cnn(-c2ccccc2)c1NC(=O)c1ccco1 | 12.8%
CCc1ccc(OCC(=O)NNC(=O)CSc2ncnc3sc(C)c(C)c23)cc1 | 5.0%
O=C(CN1CCN(Cc2ccc(Cl)cc2)CC1)N/N=C/c1ccncc1 | -2.7%
Cn1c(SCc2nc(-c3cccs3)no2)nnc1C1CCCCC1 | 8.8%
CC(=O)Nc1ccc2c(c1)C(N1CC3CCC(CC3)C1)c1ccccc1-2 (configuration not stated) | -7.1%
CN(Cc1ccccc1)C(=O)c1ccc(NC(=O)Cc2cccc(NC(=O)C3CCCN(C(=O)CCc4ccccc4)C3)c2)cc1 (configuration not stated) | -13.2%
CCOC(=O)N1CCN(C(=S)NC(=O)c2cc(Br)ccc2Cl)CC1 | 15.7%
COc1ccccc1CCC(=O)OCC(=O)Nc1cc(C)nn1-c1ccccc1 | -10.6%
COc1ccc(/C=C2\N=C(SC)SC2=O)cc1OC | -0.3%
O=C(NCc1ccco1)c1ccc2c(c1)N(Cc1ccccc1)C(=O)c1ccccc1S2 | -8.9%
N#Cc1c(/N=C/c2cccs2)sc2c1CCCCC2 | 9.5%
O=C(N/N=C/c1ccc([N+](=O)[O-])cc1)C(=O)N1CCCC1 | 3.1%
O=C(CSc1nc(NS(=O)(=O)c2ccccc2)cc(=O)[nH]1)Nc1ccccc1Cl | -26.9%
C=C(C)COc1ccc(-c2ncncc2-c2ccccc2)c(O)c1 | -13.7%
CCCn1c2ccccc2c2cnn(CC(=O)N3CCN(C4CCCCC4)CC3)c(=O)c21 | -8.4%
CCN1C(=NCCN2CCOCC2)N[C@@H](c2ccccc2)C(C(=O)OC)=C1C | -5.9%
COc1ccc(C(=O)NC2CCc3ccccc32)cc1OC1CCN(C(C)=O)CC1 (configuration not stated) | 21.6%
CCOc1ccc(-n2c(SCC(=O)NCc3ccco3)nnc2-c2c[nH]c3ccccc23)cc1 | -5.9%
Cc1nc(-c2nnc(SCC(=O)Nc3ccc(Cl)cc3)n2C)cs1 | -3.6%
CCOc1ccc(/C=C/c2nc(C#N)c(NC(C)CC)o2)cc1 (configuration not stated) | 2.7%
CCOc1ccc(NC(=O)CCc2c(C)nn(-c3ccc(N4CCCC4)nn3)c2C)cc1 | -11.0%
C[C@H](NC(=O)c1nc[nH]c1C(=O)NCCCCCN)C(=O)OC(C)(C)C | 1.5%
O=C(CCC(=O)c1cccs1)Nc1ccc(N2CCCCC2)cc1 | 3.4%
CCC(C)(C)n1nnnc1C(c1ccc(O)cc1)N1CCc2ccccc2C1 (configuration not stated) | ?
CCCCCCCc1nc2nc(C)c(Br)c(=O)n2[nH]1 | -7.4%
O=C(OCc1cccc(C(F)(F)F)c1)c1ccc(-c2nnn(Cc3ccc(F)cc3)n2)cc1 | -5.4%
CCOC(=O)c1ccc(S(=O)(=O)NNC(=O)COc2ccccc2C)cc1 | 7.8%
CCOC(=O)N1CCN(C(=O)c2oc3ccc(S(=O)(=O)N4CCOCC4)cc3c2C)CC1 | -2.3%
Cc1nc2ncccn2c1-c1csc(Nc2ccccc2)n1 | -9.0%
CCOc1ccc(CNC(=O)c2cnc3sc(N4CCOCC4)nn3c2=O)cc1OC | -2.0%
COc1cccc(O)c1CN1CCC(C(=O)Nc2ccc(-c3cccc(C)c3)cc2)CC1 | 4.0%
O=C(CSCC(=O)N1CCCc2ccccc21)Nc1nc(-c2ccccc2)cs1 | -9.7%
NC(=O)c1cc([N+](=O)[O-])c(Cl)cc1NCc1ccncc1 | 1.9%
CCOc1ccc(C(=O)NC2CC3CCCC(C2)N3CC(C)C)cc1 (configuration not stated) | 16.5%
CCOC(=O)C1C(=O)CC(C)(O)C(C(=O)OCC)C1c1cccc(OC(F)(F)C(F)F)c1 (configuration not stated) | 8.6%

Additional structures
SMILES | VDR inh
c1ccc(-n2c(-c3ccco3)nnc2-c2ccco2)cc1 | 3.5%
NC(=O)Cn1cnc2c(nnn2-c2cccc(Cl)c2)c1=O | -1.7%
O=C(O)c1cc(NS(=O)(=O)c2ccc(N3CCOCC3)c([N+](=O)[O-])c2)cc(C(=O)O)c1 | -7.6%
O=C(CC1NCCNC1=O)Nc1ccc(F)c(Cl)c1 (configuration not stated) | -3.3%
CC1CN(c2oc(-c3ccco3)nc2C#N)CC(C)O1 (configuration not stated) | -4.2%
Cc1ccc(-n2ncc3c(N4CCCCCC4)ncnc32)cc1 | -2.6%
CCn1c(=O)c2cc(C(=O)NCCOC)sc2c2ccccc21 | 6.5%
O=C(CSc1ncnc2c1oc1ccccc12)NCC1CCCO1 (configuration not stated) | -3.5%
O=c1c2c(-c3ccccc3)csc2ncn1/N=C/c1cn(-c2ccccc2)nc1-c1cccs1 | 6.5%
Cc1ccc(S(=O)(=O)N(CC(=O)Nc2ccc(C)c(Cl)c2)C(=O)N2CCN(C)CC2)cc1 | -1.6%
COc1ccc(N2CC(C(=O)N3CCN(c4ccccc4F)CC3)CC2=O)cc1 (configuration not stated) | 13.0%
CCOc1ccc(C2c3c(-c4cc(C)ccc4O)n[nH]c3C(=O)N2Cc2cccnc2)cc1OCC (configuration not stated) | 17.8%
COc1ccc(NS(=O)(=O)c2ccc(NS(=O)(=O)c3cccc(C(=O)O)c3)cc2)cc1 | -19.4%
O=C(Nc1ccon1)c1nc[nH]c1C(=O)N1CCN(c2ccccc2)CC1 | -2.9%
O=C(CCCCn1c(=O)[nH]c2ccsc2c1=O)NCc1ccc2c(c1)OCO2 | 5.8%
CCOc1ccc(C(CC(=O)O)NC(=O)C(CC)c2ccccc2)cc1 (configuration not stated) | -3.0%
CCOc1ccccc1Nc1nnc(SCc2ccc(C(=O)OC)o2)s1 | 4.8%
CCOc1ccc2nc(SCC(=O)NCc3ccccc3)[nH]c2c1 | -4.9%
CCCCOc1cccc(C(=O)NC(=S)Nc2cccc(C(F)(F)F)c2)c1 | 9.4%
O=C(O)c1ccc(NC2=C/C(=N/S(=O)(=O)c3ccccc3)c3ccccc3C2=O)cc1 | ?
O=C(COc1ccccc1)NS(=O)(=O)c1ccc(Cl)cc1 | -0.7%
Cc1ccc(C(CC(=O)Nc2ccc(F)c(Cl)c2)N2Cc3ccccc3C2=O)cc1 (configuration not stated) | 4.4%
Cc1ccccc1C(=O)N1CCC(C(=O)Nc2sccc2C(N)=O)CC1 | 9.3%
COc1ccc(CNC(=O)CCS(=O)(=O)c2cc(Br)cc3c2N(C(=O)C2CC2)CC3)cc1 | -13.5%
COc1cccc(CNC(=O)c2cc(=O)[nH]c3ccc(S(=O)(=O)N4CCCCC4)cc23)c1 | -13.3%
Cc1c(Cl)cccc1NC(=S)NCc1ccc2c(c1)OCO2 | 4.7%
COC(=O)c1c(NC(=O)c2ccccc2F)sc2c1C(C(=O)OC)CC2 (configuration not stated) | 3.3%
Cc1ccc(C(=O)N/N=C\c2ccc(-c3ccc([N+](=O)[O-])cc3)o2)cn1 | -1.3%
CCc1ccc2[nH]c(=O)c(CN(Cc3ccc(F)cc3)C(c3nnnn3CCN3CCOCC3)C(C)C)cc2c1 (configuration not stated) | 2.9%
CCOC(=O)c1c(NC(NC(C)=O)C(Cl)(Cl)Cl)sc2c1CCCC2 (configuration not stated) | -3.9%

Two records drawn at random from the list so far:
SMILES | VDR inh
Cc1c(Cl)cccc1NC(=S)NCc1ccc2c(c1)OCO2 | 4.7%
COc1cccc(CNC(=O)c2cc(=O)[nH]c3ccc(S(=O)(=O)N4CCCCC4)cc23)c1 | -13.3%

More structures follow.
SMILES | VDR inh
CC(C)CNC(=O)CSc1n[nH]c(=O)n1CCc1ccccc1 | 10.1%
Cc1cccc(NC(=O)CSc2n[nH]c(-c3ccncc3)n2)c1 | 5.2%
CCOC(=O)c1ccc(NC(=O)C(=O)NCc2ccccn2)cc1 | 7.1%
COc1cc(NS(=O)(=O)c2ccc(C)cc2)ccc1-n1cnnn1 | -7.6%
Cc1cc(C)cc(NC(=O)C(=O)NC(C)c2ccccc2)c1 (configuration not stated) | -7.8%
COc1ccc(Cc2nnc(SCC(=O)Nc3ccc(C)cc3)n(N)c2=O)cc1 | 16.7%
Cc1c(NC(=O)C(C)OC(=O)c2ccccc2O)c(=O)n(-c2ccccc2)n1C (configuration not stated) | -0.9%
Cc1nn(Cc2nc(-c3cccs3)no2)c(C)c1Br | 11.8%
O=C(Nc1ccc(F)cc1)c1ccc(CN2CC(=O)N3CCCCC3C2=O)cc1 (configuration not stated) | 20.6%
CC(=O)Nc1n[nH]c(=S)s1 | 50.1µM*
O=C(CNC(=O)c1ccc(Oc2ccccc2)cc1)OC1CCCCC1=O (configuration not stated) | -7.1%
CN(C)CCCOC(=O)CCc1ccccc1 | -0.3%
Cc1cccc(OCC(=O)Nc2ccc3c(c2)N(C)C(=O)c2ccccc2S3)c1 | 4.5%
CC(C)C(C(=O)OCC(=O)c1ccc2c(c1)NC(=O)CO2)N1C(=O)c2ccccc2C1=O (configuration not stated) | 0.0%
O=C(Cc1ccccc1F)N1CCC(c2nc3c(nnn3Cc3cccc(Cl)c3)c(=O)[nH]2)CC1 | 7.1%
COc1ccc(/C=N/NC2=NCCCCC2)c(OC)c1 | -8.4%
COc1ccc(NC(=O)Cn2c(=O)n(C(C)C)c(=O)c3oc4ccccc4c32)cc1Cl | 6.9%
CC(c1ccco1)N(C(=O)c1ccc(F)cc1)c1ccccn1 (configuration not stated) | -2.4%
CN(Cc1ccccc1)C(=O)C1CCN(S(=O)(=O)c2ccc(-n3cnnn3)cc2)CC1 | 12.8%
O=C(O)/C=C/C(=O)NNc1ncnc2ccccc12 | 4.9%
CN1CCN(C(=O)c2ccc(F)c(F)c2)CC1 | 11.2%
CC(=O)Nc1cccc(NC(=O)c2cc(-c3cccnc3)nc3ccc(Br)cc23)c1 | 1.5%
CCCCN(C)C(=O)c1nc2ccccn2c1CN(C)Cc1csc(C)n1 | -8.6%
CCCCNC(=O)c1cn(C)c2ccc(S(=O)(=O)N3CCCC3)cc2c1=O | 13.0%&-9.9%
CCCN(CC(=O)Nc1ccccc1C)C(=O)C1CC(=O)N(c2ccc(C)cc2)C1 (configuration not stated) | 9.3%
Cc1cc(C(F)(F)F)c(C#N)c(Sc2ccccc2)n1 | -9.4%
COc1ccc(OCCn2cnc(Cl)c2Cl)cc1 | -0.3%
COc1cc(C(c2sc3nc(C)nn3c2O)N2CCOCC2)cc(OC)c1OC (configuration not stated) | 5.9%
O=C(N/N=C\c1cn[nH]c1-c1ccccc1)c1ccc([N+](=O)[O-])cc1 | -9.1%

In another format: results already given
molecule	VDR inh
CC(=O)Nc1cccc(NC(=O)c2cc(-c3cccnc3)nc3ccc(Br)cc23)c1	1.5%
CCCCN(C)C(=O)c1nc2ccccn2c1CN(C)Cc1csc(C)n1	-8.6%
CCCCNC(=O)c1cn(C)c2ccc(S(=O)(=O)N3CCCC3)cc2c1=O	13.0%&-9.9%
CCCN(CC(=O)Nc1ccccc1C)C(=O)C1CC(=O)N(c2ccc(C)cc2)C1 (configuration not stated)	9.3%
Cc1cc(C(F)(F)F)c(C#N)c(Sc2ccccc2)n1	-9.4%
COc1ccc(OCCn2cnc(Cl)c2Cl)cc1	-0.3%
COc1cc(C(c2sc3nc(C)nn3c2O)N2CCOCC2)cc(OC)c1OC (configuration not stated)	5.9%

Compound activity from PubChem.

Not all compounds are listed; the hit share may differ from the screen's.
